OX1R FRET antag: antagonists of human orexin 1 receptor (OX1R). Orexin/Hypocretin receptor type 1 (Homo sapiens), O43613. OX1R-expressing cells, FRET antagonist read-out. inhibition, % at 6.6 µM. actives 1.8% (n = 330,000). AID 485270, 2010; in the data active = inhibition mostly above about 38%, no sharp cut-off; inactive = mostly below about 40%;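 note: 0% = agonist challenge alone and 100% = reference antagonist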
Target sequence (O43613 whole entry, looked up): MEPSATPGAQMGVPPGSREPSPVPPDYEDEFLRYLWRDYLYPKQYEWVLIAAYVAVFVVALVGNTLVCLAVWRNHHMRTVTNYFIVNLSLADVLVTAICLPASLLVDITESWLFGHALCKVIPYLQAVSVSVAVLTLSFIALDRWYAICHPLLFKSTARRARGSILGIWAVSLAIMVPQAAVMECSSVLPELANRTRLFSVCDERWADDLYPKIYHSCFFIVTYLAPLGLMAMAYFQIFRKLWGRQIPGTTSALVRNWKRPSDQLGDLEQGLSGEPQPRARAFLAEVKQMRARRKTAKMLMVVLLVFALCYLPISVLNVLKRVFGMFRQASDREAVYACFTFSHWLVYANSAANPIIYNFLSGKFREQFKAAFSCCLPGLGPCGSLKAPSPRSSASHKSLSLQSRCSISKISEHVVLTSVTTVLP
Starred values were filed as active, the others as inactive. The list is partial; most or all hits stand in other tables.

SMILES	OX1R FRET antag
COc1ccc(/C=N/N=C2/NC(=O)C(CC(=O)NC(C)C)S2)cc1 (configuration not stated)	-1.5
CCOc1cc(/C=C/C(=O)c2ccc3c(c2)OCCO3)ccc1OCC(=O)N(C)C	3.6
OCCCNc1ncnc2sc3c(c12)CCN(Cc1ccccc1)C3	14.3
O=C(CSc1nnnn1-c1ccccc1)Nc1nsc(-c2ccc(Cl)cc2)n1	32.3
COc1ccccc1N1CCN(c2ncnc3sc(C)c(-c4ccccc4)c23)CC1	11.0
Nc1nc(-c2ccco2)nn1C(=O)c1ccccc1	15.3
Cc1nn(-c2nc3ccccc3[nH]2)c(N)c1-c1ccccc1	35.9
Cc1c(CC(=O)N2CCC(C(N)=O)CC2)c(=O)oc2cc3c(cc12)CCC1(CCCCC1)O3	6.1
CCCCOc1ccc(C(=O)NCC(=O)OC2CCOC2=O)cc1 (configuration not stated)	8.5
Cc1ccc(-c2nnc(COc3cccc(-n4cnnn4)c3)o2)cc1	12.8
COc1ccc2[nH]c3nc(SCC(=O)Nc4ccc5c(c4)OCO5)nnc3c2c1	23.5
O=C(/C=C/c1ccc(O)c(O)c1)c1ccc(S(=O)(=O)N2CCCCCC2)cc1	-4.4
CCOC(=O)c1c(C)[nH]c(C(=O)COC(=O)c2cnc(C)cn2)c1C	4.5
CC1CCCCC1NC(=O)Cn1c(=O)oc2cc(S(=O)(=O)N3CCCC3)ccc21 (configuration not stated)	17.1
CCCNC(=O)c1cccc(Cn2cc(Br)c([N+](=O)[O-])n2)c1	12.3

3 entries drawn at random from those above:
SMILES	OX1R FRET antag
COc1ccccc1N1CCN(c2ncnc3sc(C)c(-c4ccccc4)c23)CC1	11.0
CCOC(=O)c1c(C)[nH]c(C(=O)COC(=O)c2cnc(C)cn2)c1C	4.5
Cc1ccc(-c2nnc(COc3cccc(-n4cnnn4)c3)o2)cc1	12.8

The listing picks up with the 7 entries that preceded the break.
SMILES	OX1R FRET antag
CCCCOc1ccc(C(=O)NCC(=O)OC2CCOC2=O)cc1 (configuration not stated)	8.5
Cc1ccc(-c2nnc(COc3cccc(-n4cnnn4)c3)o2)cc1	12.8
COc1ccc2[nH]c3nc(SCC(=O)Nc4ccc5c(c4)OCO5)nnc3c2c1	23.5
O=C(/C=C/c1ccc(O)c(O)c1)c1ccc(S(=O)(=O)N2CCCCCC2)cc1	-4.4
CCOC(=O)c1c(C)[nH]c(C(=O)COC(=O)c2cnc(C)cn2)c1C	4.5
CC1CCCCC1NC(=O)Cn1c(=O)oc2cc(S(=O)(=O)N3CCCC3)ccc21 (configuration not stated)	17.1
CCCNC(=O)c1cccc(Cn2cc(Br)c([N+](=O)[O-])n2)c1	12.3
COC(=O)Cc1ccc(NC(=S)NCCSc2ccc(C)cc2)cc1	14.8
Cc1cccc(CN2CCN(C(C)C(=O)NC(C)c3ccccc3)CC2)c1 (configuration not stated)	-2.4
COC(=O)c1ccccc1NC(=O)c1cnn2c(C(F)F)cc(C3CC3)nc12	29.5
O=C(NCc1ccccn1)c1ccc(Cl)cc1Cl	2.1
CC(C)(C)OC(=O)N1CCOCCOCCN(C(=O)OC(C)(C)C)CCOCC1	8.2
Cc1cc(C(F)(F)F)nn2cnnc12	-2.3
C[C@H](NC(=O)N1CCn2c1nc1ccccc12)C(=O)NCc1ccccc1	10.3
CCCCOP(=O)(c1ccc(N(C)C)cc1)C(O)c1ccc(C(C)C)cc1 (configuration not stated)	4.2
CC1CC(C)CN(CC(O)COC2CC(C)CC(C)(C)C2)C1 (configuration not stated)	9.5
CC1(C)CC(=O)C2=C(C1)Nc1ccccc1N(C(=O)C1CC1)C2c1ccco1 (configuration not stated)	6.8
O=C(N/N=C/c1ccncc1)c1ccc(NC(=O)c2cccc(Cl)c2)cc1	22.5
NC(=O)CC(NC(=O)Cc1cccc2ccccc12)c1ccc(NC2CCC2)c([N+](=O)[O-])c1 (configuration not stated)	10.7
Cc1ccc(SCC(=O)NNC(=O)c2ccc(S(C)(=O)=O)cc2)cc1	7.6
Cc1ccc(NC(=O)COC(=O)C2CSC3(C)CCC(=O)N23)cc1S(=O)(=O)N1CCOCC1 (configuration not stated)	7.0
CN(C)c1ccc(NC(=O)COC(=O)c2cc(Cl)ccc2[N+](=O)[O-])cc1	21.2
Nn1cc(-c2ccccc2)nc1SCC(=O)NCC(F)(F)F	12.9
Cc1cc(=O)n2c3c(cccc13)CCC2	2.3
Cc1ccc(S(=O)(=O)/C(=C\N(C)C)c2cnc(Cl)s2)cc1	17.6
Cc1cc(C)n2nc(-c3ccc(F)cc3)nc2n1	6.2
CN(C(=O)C1CCCO1)c1nnc(-c2cnccn2)s1 (configuration not stated)	25.7
CCn1c(=S)sc2c(=O)n(CC(=O)Nc3ccc(OC)c(Cl)c3)c(C)nc21	-3.8
CCCOc1ccc(-c2nn(-c3ccccc3)cc2/C=C2\SC(N)=NC2=O)cc1C	8.7
O=C(c1cn(-c2ccccc2)nc1-c1ccccc1)n1nnc2ccccc21	5.7
CCOC(=O)C1CCN(C(=O)C(=O)N2CCC(C(=O)OCC)CC2)CC1	3.3
Clc1ccc(N2CCN(Cc3ccc(Br)o3)CC2)cc1	6.6
O=C1CCCC2=C1C(c1ccccc1)NC(=S)N2 (configuration not stated)	12.5
NC(=S)Nc1cc(Cl)cc(Cl)c1	8.8
O=C(CCCc1c[nH]c2ccccc12)NCc1ccccc1F	14.4
COC(=O)c1cccc(NC(=O)c2cccnc2C(=O)O)c1C	1.0
COc1ccc(OC)c(CNC(=O)CCN2C(=O)COc3ccccc32)c1	-20.2

As a working copy, some entries already given:
SMILES	OX1R FRET antag
Nn1cc(-c2ccccc2)nc1SCC(=O)NCC(F)(F)F	12.9
Cc1cc(=O)n2c3c(cccc13)CCC2	2.3
Cc1ccc(S(=O)(=O)/C(=C\N(C)C)c2cnc(Cl)s2)cc1	17.6

Further entries.
SMILES	OX1R FRET antag
COc1ccc(N2CCN(C(=O)c3ccc(N(C)S(=O)(=O)c4ccc(OC)cc4)cc3)CC2)cc1	33.6
Cc1nnc(SCC(=O)c2cc(C)n(C3CC3)c2C)s1	21.7
CCOC(=O)C1CCN(C(=O)CSc2nnc(-c3ccco3)n2-c2ccccc2)CC1	13.9
CCOc1ccc(NC(=S)NC(=O)/C=C/c2ccc(Br)cc2)c([N+](=O)[O-])c1	8.4
Clc1ccc(Cn2cccn2)cn1	25.1
O=C(c1ccco1)N1CCN(Cc2nc3cc(Cl)ccc3c(=O)[nH]2)CC1	12.4
S=C(NCc1cccs1)Nc1ccc(Cl)cc1	13.0
COc1cc(OC)nc(Oc2ccccc2C(=O)Oc2ccc(Cl)cc2)n1	18.3
COc1ccccc1-n1c(SCC(=O)Nc2cc(C)on2)nc2c(c1=O)SCC2	7.3
CCCNC(=O)c1ccc(N2CCC3(CC2)CC(c2cccc(Br)c2)=NO3)c(NC(=O)c2ccccc2)c1	19.8
COc1ccc(Br)cc1C1CC(=O)N2CN(Cc3ccccc3)CSC2=C1C#N (configuration not stated)	9.1
N/C(=N\OC(=O)CC1CCCCC1)c1ccc(Cl)cc1	29.7
CCn1c(=O)n(-c2ccc(Cl)cc2)c(=O)c2c3c(sc21)COC(C)(C)C3	3.1
O=C(NCc1ccc(Cl)cc1)c1ccc(OCC2CCCO2)cc1 (configuration not stated)	5.0
COc1ccc(Nc2ccc([N+](=O)[O-])cn2)cc1	29.3
CCOc1ccc(NC(=S)N(CCCN2CCOCC2)Cc2cn(C)c3ccccc23)cc1	6.6
O=C(Cc1c(F)cccc1Cl)NC1CCN(Cc2ccccc2)CC1	5.9
COC(=O)c1ccccc1NC(=O)C1CC(=O)N(c2ccc(F)cc2)C1 (configuration not stated)	11.1
O=C(Nc1ccc(Oc2ccccc2)cc1)c1ccco1	20.3
CCOc1ccc(OCc2ccc(C(=O)N3CCc4ccccc4C3)o2)cc1	14.8
CC(C)(C)NS(=O)(=O)c1cnc(Cl)c(Cl)c1	11.4
CN(Cc1ccon1)C(=O)C1CCC(=O)N(Cc2ccc(Cl)cc2)C1 (configuration not stated)	31.0
COc1cccc(NC(=O)c2cc(Cl)nnc2Cl)c1	16.5
COc1cccc2cc(C(=O)NCc3ccccc3)c(=N)oc12	9.1
CCN(C(=O)c1ccc2c(=O)n3c(nc2c1)CCCCC3)c1ccccc1C	10.6
COc1ccc(C(CC(=O)O)NC(C)=O)cc1OC (configuration not stated)	17.3
COC(=O)CC1=C(C(=O)OC)C(c2ccncc2)C(C#N)=C(N)O1 (configuration not stated)	3.4
O=C(Nc1ccc(Cl)cn1)c1cccc(S(=O)(=O)N2CCCC2)c1	23.9
CC(NC(=O)c1cccnc1)C(c1cccs1)N1CCN(C)CC1 (configuration not stated)	-6.5
O=C(Nc1ccccc1C(=O)O)c1cc(S(=O)(=O)N2CCCCCC2)ccc1Cl	18.3
Cc1cc(C(=O)N/N=C2\CCCc3ccccc32)c(C)o1	6.1
CCOC(=O)C(NC(=O)Cc1ccccc1)(Nc1cc(C)on1)C(F)(F)F (configuration not stated)	6.3
COc1ccc(/C=C2\C(=N)N3N=C(CC(=O)N4CCCCC4)SC3=NC2=O)cc1	3.3
C=CCn1c(CCSCc2ccccc2)n[nH]c1=S	19.9
COc1ccc(NS(=O)(=O)c2cccc(C(=O)NCc3ccccn3)c2)cc1	10.8
COc1ccccc1C(C)NS(=O)(=O)c1ccc(Cl)nc1 (configuration not stated)	34.5
CSc1cccc(CN2CCCC(CNC(=O)c3ccc(F)cc3)C2)c1 (configuration not stated)	6.9
COc1cc(-c2nc(S(=O)(=O)c3ccc(C)cc3)c(N3CCOCC3)o2)cc(OC)c1OC	6.0
CC(=O)c1c(C)[nH]c(C(=O)NCc2ccccc2F)c1C	16.1
CC(=O)N(\C=C/C=C/C=C1\Sc2ccccc2C1=O)c1ccccc1	13.2
COc1cccc(C2NC(=O)N(CCCC(=O)O)C(C)=C2C(=O)OCc2ccccc2)c1 (configuration not stated)	9.4
N/C(=N\OC(=O)c1ccco1)c1ccccc1	11.9
COc1ccc(S(=O)(=O)N2CCCN(C)CC2)cc1	1.6
CCn1ncc(/C=C/C(=O)NCc2cn(C)nc2C)c1C	11.6
COc1ccc(F)cc1S(=O)(=O)NCCN1CCOCC1	0.5
O=C(NNC(=O)c1ccc(Cl)c(S(=O)(=O)Nc2ccc(Cl)cc2)c1)c1ccc(=O)[nH]c1	5.5
Cc1ccc(OCC(=O)N2CCc3ccccc3C2)cc1	-4.0
CCCCNS(=O)(=O)c1ccc(NC(=O)c2c(-c3ccccc3Cl)noc2C)cc1	2.8
CNC(=O)C1CCN(S(=O)(=O)c2c(C)noc2/C=C/c2cccc(C)c2)CC1	6.0
NC(=O)C1(c2ccccc2)CCCN1C(=O)c1ccc(Br)cc1 (configuration not stated)	1.6
Cc1cc(Cl)c(OCCCn2cncn2)c(Br)c1	11.0
Cc1ccc2nsnc2c1NC(=O)CCc1ccccc1	40.1
C/C(CC(=O)NC1CCCCC1)=N\NC(=O)c1ccccc1C	13.9
Cc1ccc(CNC(=O)C2CC(c3ccccc3C(F)(F)F)=NO2)cc1 (configuration not stated)	34.0
CCn1c(CSc2nc3ccccc3s2)nnc1SCC(N)=O	6.6
O=C(NC1CCCCC1)C(c1ccncc1)N(Cc1ccccc1)C(=O)c1ccc(-c2ccccc2)[nH]1 (configuration not stated)	13.9
COc1ccc(N2CCN(C(=O)Nc3cccc(C(F)(F)F)c3)CC2)cc1	12.2
O=C(Nc1ccccc1F)c1ccc(COc2ccc(Cl)cc2Cl)o1	21.9
CCN(CC)C(=O)CSCc1cnn(-c2ccccc2)c1-n1cccc1	15.9
Cn1cccc1C(=O)OCC(=O)NC(=O)NC1CCCCC1	-7.1

(list continues)
SMILES	OX1R FRET antag
O=C(N/N=C1\CC(c2ccccc2)Oc2ccccc21)c1ccccn1 (configuration not stated)	23.1
CCOc1ccc(CN(C)C(C)C(=O)Nc2ccc([N+](=O)[O-])cc2Cl)cc1OC (configuration not stated)	8.9
CCOC(=O)CN1C(=O)CSc2ccccc21	5.9
O=C(Cn1nnc(-c2ccccc2-n2cnnn2)n1)NCc1ccccc1	-2.6
Cc1nc(-c2cc(-c3ccc(Cl)cc3)no2)cs1	5.3
CCOc1ccccc1CN1CCNC(=O)C1CC(=O)N(C)C1CCOCC1 (configuration not stated)	3.2
COc1ccc(NC(=O)c2ccc(Cl)nc2)cc1S(=O)(=O)N1CCCCC1	8.4
COc1cccc(C(=O)Nc2cc(Cl)c(O)c(Cl)c2)c1	11.7
CC(C)C1(C(C)C)OC(=O)c2ccccc21	7.1
CC12CCC(=O)N1C(C(=O)Nc1nc3ccc(S(C)(=O)=O)cc3s1)CS2 (configuration not stated)	14.6
O=C(N/C(=C\c1ccc([N+](=O)[O-])cc1)C(=O)N1CCCCC1)c1ccco1	25.7
CN(CC(=O)Nc1ccccc1Br)C(=O)c1cccn1C	12.7
CC(C)C[C@H]1C(=O)N2CCC[C@H]2[C@]2(O)O[C@](NC(=O)[C@@H]3C=C4c5cccc6[nH]c(Br)c(c56)CC4N(C)C3)(C(C)C)C(=O)N12 (some centres not stated)	43.3
CCCOC(=O)Nc1sc2c(c1C(=O)OCC)CCC2	-0.7
NNC(=O)c1ccc(CSc2cccc3cccnc23)cc1	38.4
CCOc1ccc(Oc2ccc(Cl)cc2N)cc1	12.2
CCOC(=O)c1sc(NC(NC(=O)c2ccco2)(C(=O)OC)C(F)(F)F)nc1C (configuration not stated)	8.9
Cn1ccnc1SCc1cc(=O)[nH]c2ccccc12	1.3
OCCN1CCN(Cc2nc(-c3cccc(Cl)c3)no2)CC1	7.6
CCNC(=S)NCCN1CCOCC1	9.4
COc1cccc(C2CC(c3cccs3)=NN2C(=O)CSC2=NCCS2)c1OC (configuration not stated)	32.3
CCn1c(Sc2ccc(N)cc2Cl)nc2ccccc21	33.6
Cc1ccc(NC(=O)C2CCCN2C(=O)NCc2ccccc2)cc1 (configuration not stated)	2.8
O=C(O)c1ccc(CNCc2ccc(Cl)cc2)cc1	9.1
COc1ccc(NS(=O)(=O)c2ccc(NC(C)=O)cc2)cc1OC	10.9
O=C(CSc1ccc(-c2ccc(F)cc2)nn1)NCC1CCCO1 (configuration not stated)	12.1
CCNC(=O)CP(=O)(c1ccccc1)c1ccccc1	20.8
O=C(CCCn1cncn1)N1CCCC(N2CCN(c3ccccc3F)CC2)C1 (configuration not stated)	4.2
CCn1c(CNC(=O)c2cc(OC)c(OC)c(OC)c2)cc2cc(C)ccc21	16.0
CCOCC(=O)Nc1ccc(C)c(Cl)c1	22.5

Screening results (PubChem)
